High-throughput results: PubChem BioAssay, National Center for Advancing Translational Sciences (NCATS)
Rango complex inh = Rango-importin beta binding inhibition | 340,000 compounds, 0.031% hits | Q14974 | Rango CFP/YFP FRET sensor + importin beta, 45 min | AID 540263 | Potency, µM (titrated, usually from 92.2 µM), inactives show top-dose inhibition of complex formation; active = rising FRET ratio curve, often small or poorly fitted; inconclusive = mostly compound fluorescence or quenching in the first reads; inactive = flat curves in all reads;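 further: potency means the concentration at half of the fitted maximal effect; 0% = DMSO wells and 100% = buffer wells lacking importin beta; nearly all actives have a fitted effect of over 15% in size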
Target sequence (Q14974 whole entry, looked up): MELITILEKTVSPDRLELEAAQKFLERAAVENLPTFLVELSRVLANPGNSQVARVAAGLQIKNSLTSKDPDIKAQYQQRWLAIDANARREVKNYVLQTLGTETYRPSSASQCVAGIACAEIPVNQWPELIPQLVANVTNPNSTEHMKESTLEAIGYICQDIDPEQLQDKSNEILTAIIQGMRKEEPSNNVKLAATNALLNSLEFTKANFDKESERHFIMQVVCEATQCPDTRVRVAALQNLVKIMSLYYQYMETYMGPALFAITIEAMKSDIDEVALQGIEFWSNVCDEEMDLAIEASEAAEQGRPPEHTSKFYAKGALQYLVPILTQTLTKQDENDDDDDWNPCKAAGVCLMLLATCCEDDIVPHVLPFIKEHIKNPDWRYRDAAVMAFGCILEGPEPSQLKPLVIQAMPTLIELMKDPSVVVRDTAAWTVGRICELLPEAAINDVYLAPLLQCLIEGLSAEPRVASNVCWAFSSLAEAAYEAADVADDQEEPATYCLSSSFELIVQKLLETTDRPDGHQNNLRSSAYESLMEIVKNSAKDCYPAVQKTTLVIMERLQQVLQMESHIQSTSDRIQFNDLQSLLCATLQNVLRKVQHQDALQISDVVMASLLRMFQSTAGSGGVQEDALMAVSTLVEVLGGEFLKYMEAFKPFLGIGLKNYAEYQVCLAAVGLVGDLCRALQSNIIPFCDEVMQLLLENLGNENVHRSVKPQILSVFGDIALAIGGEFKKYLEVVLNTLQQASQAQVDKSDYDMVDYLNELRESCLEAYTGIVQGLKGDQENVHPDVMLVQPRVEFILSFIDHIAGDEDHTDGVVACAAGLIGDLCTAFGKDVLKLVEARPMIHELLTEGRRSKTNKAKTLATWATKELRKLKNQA
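Inhibition scored from the CFP 486 nm/YFP 530 nm FRET ratio 45 min after adding 0.125 microM importin beta to 50 nM Rango biosensor preincubated 5 min with compound (room temperature, PBS with DTT, Tween-20, BSA). No-importin wells as positive control.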
miR-21 FLuc = raises the signal of a miR-21 reporter; HeLa miR-21 FLuc reporter, luciferase, 48 h; Potency, µM (highest dose often 38.3 µM), for the others: top-dose reporter change, positive = more light; 340,000 tested, under 10 active; AID 2288; active = well fitted rising curve with a large enough effect; inconclusive = small, poorly fitted or top-dose-only effect; inactive = no such curve, though single readings can be large or run the other way;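 further: % of control where 0% means no effect; miR-21 action dims this reporter so a rising signal means less miR-21 action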
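HeLa miR-21-FLuc reporter line, endogenous miR-21; 2000 cells/well in DMEM/10% FBS; compound titration up to ~40uM final, 48 h, 37 degree Celsius; luciferase detection reagent, 15 min lysis, CCD luminescence.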
GLA inh pH 4.5 = blocks human alpha-galactosidase A at pH 4.5; purified enzyme, 4-MU-alpha-Gal fluorescence, pH 4.5; activity change, negative = inhibition, % at 105 µM; 230,000 tested, under 10 active; AID 1467; inconclusive = small, poorly fitted or top-dose-only inhibition, or a rising curve; inactive = flat fitted curve, though single readings scatter; no compound was filed as active;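 further: 0% = full activity with enzyme and -100% = basal without enzyme; dose as in the result columns while the protocol names 77 µM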
Rango release inh = prevents RanGTP from dissociating the Rango-importin beta complex | Potency, µM (titrated, usually from 46.1 µM), for inactives: at the highest dose activity change, negative = inhibition | O95149+P62826 | AID 540253 | Biochemical FRET Rango-importin beta, RanGTP-induced dissociation | 340,000 compounds, 0.071% hits; active means falling FRET ratio curve, often poorly fitted, with flat reads before Ran was added; inconclusive means other falling curves, or compound fluorescence or quenching; inactive means flat or rising ratio curve;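 further: potency means the concentration at half of the fitted maximal effect; % of control where 0% means no effect; nearly all actives have a fitted effect of over 45% in size; -100% = wells without RanGTP and RCC1; the record marks most hits as doubtful in a second field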
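Quantitative HTS using a FRET biosensor: 0.1 uM Rango, 0.25 uM importin beta, 0.6 uM Ran, 2 mM GTP, 0.2 uM RCC1 final, PBS with DTT, Tween-20 and BSA. Post-read taken 45 min after Ran addition.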
Active calls of the source: *; u = inconclusive; x = no result given. Not all compounds are listed; count on the stated rates, not on these rows.

Assay codes – A = Rango complex inh; B = miR-21 FLuc; C = GLA inh pH 4.5; D = Rango release inh
1	O=C(O)C1CCN(C(=O)CSc2nnc(-c3ccccc3)o2)CC1
  A = 0.1%	B = x	C = x	D = 7%
2	CC1(C)OC2C(CO)OC(n3cnc4c(=S)nc[nH]c43)C2O1 (configuration not stated)
  A = 1.8%	B = 0%	C = 2	D = 7%
3	On1c(-c2ccc(Cl)cc2)nc2ccccc21
  A = -0.1%	B = -37%	C = -4	D = -9%
4	C/C(=N\NC(=S)Nc1ccc(C(C)C)cc1)c1ccc2c(c1)OCO2
  A = -3.3%	B = -6%	C = -4	D = -6%
5	COc1ccccc1OCCn1cc(C(=O)C(C)C)c2ccccc21
  A = -0.3%	B = -1%	C = x	D = -3%
6	Cc1nn(-c2nc(-c3ccco3)cc(C(F)(F)F)n2)c(C)c1Br
  A = -0.4%	B = -2%	C = 1	D = -3%
7	CCC(C)(C)NC(=O)C1CCN(c2nc(C)cc(C)n2)CC1
  A = 0.7%	B = -2%	C = -3	D = -2%
8	COc1ccc(CNC(=O)C2CCCN(S(=O)(=O)c3ccc4c(c3)C(C)(C)C(=O)N4C)C2)cc1 (configuration not stated)
  A = 2.1%	B = 3%	C = x	D = -2%
9	CN(C(=O)c1ccc2c(c1)SC1=NS(=O)(=O)CCN12)C(c1ccccc1)c1ccccc1
  A = 8.0%	B = -5%	C = -3	D = 0%
10	Cc1cc(C)cc(NC(=O)CCCN2C(=O)C(c3ccccc3)Oc3cccnc32)c1 (configuration not stated)
  A = u	B = -1%	C = x	D = -28%
11	COC(=O)c1ccc(/C=C/C(=O)c2cccc(OC)c2)cc1
  A = 0.0%	B = -32%	C = -1	D = -5%
12	Cc1cccc(C(=O)NCc2nnc(SCC(=O)NC3=NCCS3)n2C)c1
  A = 0.0%	B = 8%	C = x	D = -11%
13	CC1=Nc2cc(C(=O)NCC3CCCO3)ccc2Sc2ccc(C)cc21 (configuration not stated)
  A = 5.0%	B = 15%	C = x	D = 18%
14	COc1cccc(C2/C(=C(/O)c3ccc4c(c3)CC(C)O4)C(=O)C(=O)N2c2nnc(C)s2)c1 (configuration not stated)
  A = u	B = -12%	C = x	D = u
15	FC(F)(F)COc1nc(OCC(F)(F)F)nc(N2CCN(c3ccccc3)CC2)n1
  A = -3.5%	B = 1%	C = -12	D = 2%
16	CCCCC(=O)Nc1cccc(C(=O)N/N=C/c2ccc(OC)cc2OC)c1
  A = -0.3%	B = -6%	C = 7	D = -16%
17	CN(Cc1ccccc1)C(=O)c1[nH]cnc1C(=O)N[C@@H](CCCCNC(=O)OC(C)(C)C)C(=O)OC(C)(C)C
  A = -0.8%	B = 13%	C = -10	D = -2%
18	Cc1cc(NC(=O)c2ccc3c(c2)C(=O)N(C(C)(C)C)C3=O)no1
  A = 3.3%	B = 0%	C = -9	D = 0%
19	Cc1ccc(SCC(=O)Nc2cc(C)on2)cc1
  A = -0.7%	B = -6%	C = 7	D = -2%
20	Cc1cccc(OCc2nc(C#N)c(NCCN(C)C)o2)c1
  A = 3.4%	B = -10%	C = 9	D = 2%
21	Nc1cc(-c2nn[nH]n2)ccc1F
  A = 0.1%	B = -1%	C = 0	D = -19%
22	C=Cc1ccc(Cn2nc(-c3ccccc3)ccc2=O)cc1
  A = 0.4%	B = -13%	C = x	D = 1%
23	O=C1CCc2cc(S(=O)(=O)NCCC(=O)N3CCN(c4cccc(Cl)c4)CC3)ccc2N1
  A = 4.1%	B = 7%	C = 5	D = 9%
24	CC(=O)Nc1ccc(S(=O)(=O)N2CCN(CC(=O)N3CCOCC3)CC2)cc1
  A = -1.7%	B = 2%	C = -4	D = -9%
25	Cc1nc2ccc(NC(=O)[C@@H](NC(=O)c3c(F)cccc3F)C(C)C)cc2s1
  A = u	B = x	C = x	D = u
26	CN(CC(=O)Nc1ccc(F)cc1)CC(=O)N1CCCCCC1
  A = -0.5%	B = x	C = x	D = 13%
27	COc1ccccc1NC(=O)c1ccc(CSc2ncccn2)cc1
  A = x	B = -35%	C = -1	D = x
28	O=C(CN1CCN(C(=O)c2ccco2)CC1)Nc1cc(C(F)(F)F)ccc1Cl
  A = 0.9%	B = -5%	C = -7	D = 10%
29	COc1ccc2cc3c(N)c(C(=O)N4CCCC4)sc3nc2c1
  A = u	B = -59%	C = 0	D = -6%
30	CCOC(=O)C(C)Sc1nc(N2CCOCC2)c2c(c1C#N)CC(C)(C)OC2 (configuration not stated)
  A = -1.2%	B = x	C = x	D = -3%

Brought forward from above: four entries, followed by the next part.
Assay codes – A = Rango complex inh; B = miR-21 FLuc; C = GLA inh pH 4.5; D = Rango release inh
27	COc1ccccc1NC(=O)c1ccc(CSc2ncccn2)cc1
  A = x	B = -35%	C = -1	D = x
28	O=C(CN1CCN(C(=O)c2ccco2)CC1)Nc1cc(C(F)(F)F)ccc1Cl
  A = 0.9%	B = -5%	C = -7	D = 10%
29	COc1ccc2cc3c(N)c(C(=O)N4CCCC4)sc3nc2c1
  A = u	B = -59%	C = 0	D = -6%
30	CCOC(=O)C(C)Sc1nc(N2CCOCC2)c2c(c1C#N)CC(C)(C)OC2 (configuration not stated)
  A = -1.2%	B = x	C = x	D = -3%
31	CCN(C(=O)COC(=O)c1c(-c2ccccc2)noc1C)c1c(N)n(Cc2ccccc2)c(=O)[nH]c1=O
  A = 1.5%	B = -2%	C = x	D = -11%
32	Nc1nnc(SCc2ccccc2)n1-c1ccccc1
  A = 3.5%	B = -13%	C = -2	D = -2%
33	Cc1cccc(-n2c(O)c(C=NCCCN3CCOCC3)c3ccccc3c2=O)c1
  A = -0.1%	B = -8%	C = 7	D = -1%
34	CC1(C)OC2C(O1)[C@@H](CO)O[C@H]2n1cnc2c(N)ncnc21 (some centres not stated)
  A = -3.9%	B = -2%	C = -2	D = 0%
35	CCCCCCOC(=O)Nc1ccc(S(=O)(=O)Nc2cccc([N+](=O)[O-])c2)cc1
  A = -0.9%	B = -3%	C = -9	D = 8%
36	Cc1cc(=O)oc2cc3c(cc12)OCO3
  A = 2.7%	B = -4%	C = x	D = 1%
37	CC(C)(C)C(=O)N1CCN(S(=O)(=O)c2ccc3c(c2)OCCCO3)CC1
  A = u	B = x	C = x	D = -12%
38	CS(=O)(=O)c1nc(-c2cccs2)cc(C(F)(F)F)n1
  A = x	B = u	C = -4	D = x
39	O=C(c1ccccc1)N1N=C(C(F)(F)F)CC1(O)c1ccccc1O (configuration not stated)
  A = 0.7%	B = -3%	C = x	D = 4%
40	Oc1[nH]c2ccccc2c1N=Nc1ccccc1Cl
  A = u	B = x	C = x	D = u
41	OCCN=C1CCCc2c1[nH]c1ccc(Br)cc21
  A = 0.1%	B = -17%	C = 6	D = 7%
42	CCCOc1ccc(Oc2ccc(S(=O)(=O)N3CCN(C)CC3)cn2)cc1
  A = 9.4%	B = x	C = x	D = 24%
43	COc1ccc(CCNC(=O)c2cc(-c3cc(C)c(C)cc3O)n[nH]2)cc1OC
  A = -1.9%	B = -13%	C = -4	D = -5%
44	Oc1ccc(-c2nnc(-c3ccccc3)c(-c3ccccc3)n2)cc1
  A = x	B = -4%	C = -13	D = x
45	COc1ccc(Cl)cc1-n1c(=S)sc2c(=O)[nH]c(SCC(=O)NCCC(C)C)nc21
  A = 0.9%	B = 3%	C = x	D = -5%

Exported with each value named: part of the list above.
#35 CCCCCCOC(=O)Nc1ccc(S(=O)(=O)Nc2cccc([N+](=O)[O-])c2)cc1
- Rango complex inh = -0.9%
- miR-21 FLuc = -3%
- GLA inh pH 4.5 = -9
- Rango release inh = 8%

#42 CCCOc1ccc(Oc2ccc(S(=O)(=O)N3CCN(C)CC3)cn2)cc1
- Rango complex inh = 9.4%
- miR-21 FLuc = x
- GLA inh pH 4.5 = x
- Rango release inh = 24%

#37 CC(C)(C)C(=O)N1CCN(S(=O)(=O)c2ccc3c(c2)OCCCO3)CC1
- Rango complex inh = u
- miR-21 FLuc = x
- GLA inh pH 4.5 = x
- Rango release inh = -12%

#41 OCCN=C1CCCc2c1[nH]c1ccc(Br)cc21
- Rango complex inh = 0.1%
- miR-21 FLuc = -17%
- GLA inh pH 4.5 = 6
- Rango release inh = 7%

(cont.)
Assay codes – A = Rango complex inh; B = miR-21 FLuc; C = GLA inh pH 4.5; D = Rango release inh
46	COc1cccc(-c2nc(NC3CCCC3)c3ccccc3n2)c1O
  A = 0.0%	B = 20%	C = x	D = -22%
47	COc1ccc([N+](=O)[O-])cc1NC(=O)C1(c2ccc(OC)c(OC)c2)CCOCC1
  A = -0.8%	B = -2%	C = -10	D = -1%
48	Cc1ccc(-c2nc(NCCCO)c3ccccc3n2)cc1
  A = 0.2%	B = -3%	C = x	D = -14%
49	COc1ccc(N2CCN(C(=O)COC(=O)COc3ccc(C#N)cc3)CC2)cc1
  A = -0.8%	B = x	C = x	D = -1%
50	COCc1nnc(NS(=O)(=O)c2ccc(NC(C)=O)cc2)s1
  A = 0.1%	B = -3%	C = 5	D = 2%
51	CCCn1nc(C(=O)Nc2ccc3nc(C)sc3c2)c2ccccc2c1=O
  A = 2.4%	B = -12%	C = 0	D = -3%
52	CN(CC(=O)Nc1ccc(Cl)c(C(F)(F)F)c1)C(=O)CCc1nc2ccccc2c(=O)[nH]1
  A = -0.9%	B = x	C = x	D = 10%
53	C[C@@H]1CN([C@H](C)CO)C(=O)c2cc(NC(=O)C3CCCCC3)ccc2O[C@@H]1CN(C)Cc1ccncc1
  A = -2.1%	B = x	C = x	D = -18%
54	Cc1ccccc1NC(=O)C1CCCN1S(=O)(=O)c1cccc2cccnc12 (configuration not stated)
  A = -3.1%	B = -13%	C = -2	D = -10%
55	Cc1ccccc1OC(C)C(=O)Nc1ccc(S(=O)(=O)Nc2nccs2)cc1 (configuration not stated)
  A = -0.5%	B = -7%	C = x	D = -8%
56	CC(C)OCCCNC(=O)[C@H]1N2C(=O)c3ccccc3C2SC1(C)C (some centres not stated)
  A = 1.0%	B = 0%	C = x	D = -16%
57	COc1cccc(N2CCN(c3cnc4ccccc4n3)CC2)c1
  A = -0.4%	B = -32%	C = 0	D = 5%
58	Cn1c(N)c(C(=O)COC(=O)c2ccc(Br)o2)c(=O)n(C)c1=O
  A = 0.2%	B = -5%	C = 4	D = -11%
59	CN1CCC(=NOc2ccc([N+](=O)[O-])cc2)CC1
  A = 4.9%	B = -35%	C = 4	D = 16%
60	CCOCCCn1c(SCC(=O)Nc2ccccc2OC)nc2ccccc2c1=O
  A = -0.3%	B = 9%	C = x	D = u
61	Cc1cccc(NC(=S)NC2CCCCC2)n1
  A = 3.7%	B = -1%	C = 3	D = -5%
62	O=C(O)C1CCN(C(=O)OCc2ccccc2)CC1
  A = -0.4%	B = -41%	C = 3	D = -7%
63	O=C(c1cnn2c(C(F)(F)F)cc(-c3ccccc3)nc12)N1CCOCC1
  A = 5.9%	B = -5%	C = 1	D = 5%
64	Cc1ccc(-c2ccc(/C=N/N3C(=O)C4C5C=CC(CC5)C4C3=O)o2)c([N+](=O)[O-])c1 (configuration not stated)
  A = 4.8%	B = -8%	C = -3	D = 0%
65	CN(C)/N=C/C=C1\CC/C(=C\c2ccc(F)c(F)c2)C1=O
  A = 1.8%	B = x	C = x	D = 7%
66	CCc1nc(C)cn1S(=O)(=O)c1ccc(Cl)c(Cl)c1Cl
  A = 1.2%	B = 6%	C = 0	D = 8%
67	CCOC(=O)Cn1c(S(=O)(=O)Cc2cccc(F)c2)nc(-c2ccccc2)c1-c1ccccc1
  A = 3.2%	B = 23%	C = -13	D = 10%
68	Cc1cc(C(=O)NC2CCCc3c2cnn3-c2ccc(C(C)(C)C)cc2)n[nH]1 (configuration not stated)
  A = 3.5%	B = 7%	C = x	D = -7%
69	Cc1c(CNCC(C)c2ccccc2)c(C(=O)O)c(C)n1Cc1ccccc1 (configuration not stated)
  A = 1.9%	B = -3%	C = -4	D = 2%
70	CCOc1ccc2c(c1)C(c1ccc(C)o1)=NNC(c1ccncc1)=N2
  A = -3.0%	B = 5%	C = -5	D = 24%
71	COc1ccc(CN2CN(S(=O)(=O)c3ccccc3)c3nc4ccccc4nc32)cc1
  A = -0.7%	B = -46%	C = -15	D = 13%
